Screening data from PubChem BioAssay.
GALR2 ag: GALR2 receptor agonists, primary screen, cell-based. Galanin receptor type 2 (Homo sapiens), O43603. GALR2-expressing cells, agonist activation read-out. activation, %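 (tested at 5 µM)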. 140,000 tested, 0.48% active. AID 803, 2007;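 active = above mean plus 3 SD of all compounds, about 5% in these data, not always enough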;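 also: 0% = vehicle buffer wells and 100% = reference agonist at full effect; tested in CHO reporter cells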
Target sequence (O43603 whole entry, looked up): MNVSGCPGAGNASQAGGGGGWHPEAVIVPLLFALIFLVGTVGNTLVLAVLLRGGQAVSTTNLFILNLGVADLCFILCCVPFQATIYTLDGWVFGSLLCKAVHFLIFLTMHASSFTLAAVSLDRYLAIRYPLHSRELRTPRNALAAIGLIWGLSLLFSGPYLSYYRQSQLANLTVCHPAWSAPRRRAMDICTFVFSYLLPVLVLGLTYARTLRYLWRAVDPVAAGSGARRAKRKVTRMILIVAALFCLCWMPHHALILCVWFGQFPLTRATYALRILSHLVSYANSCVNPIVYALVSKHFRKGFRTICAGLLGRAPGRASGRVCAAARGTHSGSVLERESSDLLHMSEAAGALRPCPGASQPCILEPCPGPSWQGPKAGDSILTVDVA
HSV augment: enhancers of HSV replication in host cells, fold increase, host cell viability. HSV replication augmentation in cells. maximum fold increase. 220,000 tested, 0.005% active. AID 1956, 2009;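 active = peak rise of 1.5-fold or more in the series; inconclusive = self-fluorescent or not available for retest; tested in PC3 cells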;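 also: first round at 10 µM; read as green reporter fluorescence; hits show the peak of a series up to 25 µM; 1 = signal of infected wells without compound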
PKD1 inh: inhibitors of human PKD1 kinase, biochemical, fluorescence polarization; Serine/threonine-protein kinase D1 (Homo sapiens), Q15139; PKD1 kinase fluorescence polarization assay; inhibition, %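 (about 10 µM by stock and volumes)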; 200,000 tested, 0.056% active;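 active = inhibition of 50% or more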;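 also: controls were vehicle for no effect and a reference inhibitor for full effect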
Insulin prom inh: inhibitors of insulin promoter-driven GFP, primary screen, imaging, TRM-6 cells (human fetal islet line), eGFP reporter, cell count; reporter expression induced with tamoxifen; inhibition, % at 2 µM; 130,000 tested, 0.9% active; AID 1273, 2008;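 active = inhibition above the mean plus 3 SD, with well images judged a real hit on visual review, cut at about 60% in these data, passing the limit was not always enough; inconclusive = inhibition over the cutoff but images rejected on review; inactive = inhibition not above the cutoff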
RGS16-Gao: modulators of RGS16 binding to Galphao, primary screen, biochemical, human proteins, multiplexed bead flow cytometry. Regulator of G-protein signaling 16 (Homo sapiens) + Guanine nucleotide-binding protein …. bead-based flow cytometry RGS16-Galphao binding, fluorescence; actives lie on both sides. binding response (% of control), % at 10 µM. 220,000 tested, 0.38% active. AID 1441, 2008;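 active = below 25% or above 175%, edge rows of some plates excepted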;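 also: Galphao activated by GDP with aluminum fluoride before binding; 100% = wells without compound and 0% = beads without RGS; some results beyond the cut were filed as inactive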
Target sequence (O15492 whole entry, looked up): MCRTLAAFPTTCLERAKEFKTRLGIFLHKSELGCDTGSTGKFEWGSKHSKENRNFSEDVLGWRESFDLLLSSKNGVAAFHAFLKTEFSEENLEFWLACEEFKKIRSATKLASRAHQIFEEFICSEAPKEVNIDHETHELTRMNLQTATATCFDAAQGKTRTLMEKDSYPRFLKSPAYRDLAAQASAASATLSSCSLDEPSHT
Target sequence (P09471 whole entry, looked up): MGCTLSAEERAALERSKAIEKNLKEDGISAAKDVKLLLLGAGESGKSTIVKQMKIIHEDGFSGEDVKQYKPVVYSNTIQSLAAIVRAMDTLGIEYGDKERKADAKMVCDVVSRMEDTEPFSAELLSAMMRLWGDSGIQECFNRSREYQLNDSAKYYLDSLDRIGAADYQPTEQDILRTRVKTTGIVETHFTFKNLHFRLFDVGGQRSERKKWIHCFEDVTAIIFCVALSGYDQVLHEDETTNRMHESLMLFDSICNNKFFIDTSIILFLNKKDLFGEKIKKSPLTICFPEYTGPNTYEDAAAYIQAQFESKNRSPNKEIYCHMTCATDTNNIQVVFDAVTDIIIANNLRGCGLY
Insulin prom inh cell count: further read-out of Insulin prom inh, marked with its call; normalized cell count, %; measured here: cell count, toxicity; reference of the scale not given here;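 cells exposed to compound for 48 h; stained nuclei by imaging scaled within each plate; lower means fewer cells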
HSV augment primary fold: further read-out of HSV augment, marked with its call; fold increase; compound at 10 µM; measured here: primary screen fold increase 10 uM; tested in PC3 cells;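 GFP signal in the first replicate; 1 = infected wells without compound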
Active calls of the source: *; i = inactive; ? = inconclusive; nt = no result given.

SMILES	GALR2 ag	HSV augment	HSV augment primary fold	PKD1 inh	Insulin prom inh	Insulin prom inh cell count	RGS16-Gao
Cc1ccc(C(c2nnnn2CS(=O)(=O)c2ccc(C)cc2)N2CCCC2)cc1 (stereo unspecified)	nt	i	1.01	-7.9	nt	nt	98.1
Cc1sc(NC(=O)C2CCCO2)c(C#N)c1C (stereo unspecified)	-1.3	i	0.9	0.7	9.4	102.5	101.3
COc1ccc(CCNC(=S)NC(=O)/C=C/c2ccc(C)cc2)cc1OC	-0.1	nt	nt	-3.5	33.3	135.5	nt
C/C(=N\NC(=O)c1cc(-c2ccncc2)nc2ccccc12)c1ccc(OC(F)F)cc1	nt	i	0.77	-6.9	-11.1	129.9	108.5
O=C(COC(=O)CNS(=O)(=O)c1cccc(Br)c1)Nc1ccccc1Sc1ccccc1	-1.6	i	0.98	-3.4	nt	nt	108.1
COc1cccc(-n2cnc3c(sc4nc(N5CCOCC5)c5c(c43)CCCC5)c2=O)c1	nt	i	0.85	-5.5	nt	nt	97.8
O=C(COC(=O)c1cccc([N+](=O)[O-])c1)c1ccc(OCc2ccccc2)cc1	-0.5	i	0.93	-8.9	33.3	74.7	107.2
COc1cccc(NC(=O)CCN2C(=O)c3ccc([N+](=O)[O-])cc3C2=O)c1	nt	i	1.03	3.6	-58.3	54.3	107.0
CCOc1ccc(Oc2ccc(NC(=O)[C@@H](NC(N)=O)[C@@H](C)CC)cc2)cc1	nt	i	1	nt	nt	nt	103.7
COCCSc1ccccc1C(=O)Nc1cc([N+](=O)[O-])ccc1OC	nt	i	0.87	5.8	-28.6	97.1	100.4
Cc1ccc(Oc2ccc(/C=N/O)cn2)cc1	-2.9	i	0.97	12.4	-17.9	83.1	101.6
O=C(Nc1ccc(S(=O)(=O)NCC2CCCO2)cc1)c1cnccn1 (stereo unspecified)	nt	i	0.95	-0.4	-7.7	137.7	105.3
Cn1c(=O)n(CCOc2ccc(Cl)cc2Cl)c2ccccc21	-1.4	i	0.96	-3.0	-10.7	151.4	113.5
COc1ccc(N2C(=O)C3CCCN3C2c2cc(OC)c(OC)c(OC)c2)cc1 (stereo unspecified)	-0.7	i	1.13	-9.7	nt	nt	104.3
O=[N+]([O-])c1cc(S(=O)(=O)Nc2ccccc2)ccc1N1CCN(c2ccccc2)CC1	-0.1	i	1.18	-4.5	nt	nt	38.6
CC1=C(C(=O)OCC2CCCO2)C(c2ccncc2)C2=C(CC(C)(C)CC2=O)N1 (stereo unspecified)	1.3	i	1.04	-5.7	-473.3	72.3	98.3
O=C(O)c1ccccc1Nc1ccccc1C(=O)O	0.0	i	0.96	6.7	31.8	73.0	101.1
OCCNc1nc(NCCC2=CCCCC2)nc(N2CCOCC2)n1	-1.6	i	0.99	-4.8	11.4	129.8	105.5
COc1cccc(CNC(=O)c2cccc(Br)c2)c1	0.1	i	0.95	1.0	27.0	101.1	106.3
O=C(Nc1nccs1)c1ccc(S(=O)(=O)N2CCOCC2)cc1	nt	i	0.86	3.2	-22.2	48.6	106.1
CC(NC(=O)C(NC(=O)C(Cc1c[nH]c2ccccc12)NC(=O)OC(C)(C)C)C(C)C)C(N)=O (stereo unspecified)	nt	i	0.97	-2.7	nt	nt	101.4
COc1cccc(/C(O)=C/c2nc3ccc(C(=O)NCCc4ccc(Cl)cc4)cc3[nH]c2=O)c1	-1.0	i	1.1	2.5	-129.6	68.2	102.6
O=C(CN1C(=O)CC(c2ccccc2)S(=O)(=O)c2ccccc21)N1CCCCC1 (stereo unspecified)	nt	i	0.87	0.5	-44.4	108.0	99.0
CCOC(=O)Nc1ccc(C(N)=O)cc1	-0.4	i	1.12	-2.6	-11.1	76.2	108.9

Single records, as listed above.
O=C(O)c1ccccc1Nc1ccccc1C(=O)O is entered as GALR2 ag: 0.0; HSV augment: i; HSV augment primary fold: 0.96; PKD1 inh: 6.7; Insulin prom inh: 31.8; Insulin prom inh cell count: 73.0; RGS16-Gao: 101.1
O=C(Nc1nccs1)c1ccc(S(=O)(=O)N2CCOCC2)cc1 is entered as GALR2 ag: nt; HSV augment: i; HSV augment primary fold: 0.86; PKD1 inh: 3.2; Insulin prom inh: -22.2; Insulin prom inh cell count: 48.6; RGS16-Gao: 106.1

Going on with the list:
SMILES	GALR2 ag	HSV augment	HSV augment primary fold	PKD1 inh	Insulin prom inh	Insulin prom inh cell count	RGS16-Gao
O=C(N=Nc1c(O)[nH]c2ccccc12)c1cc(-c2ccc(F)cc2)n[nH]1	nt	i	1	2.5	-31.2	88.3	92.6
O=C(CN1CC[n+]2c(-c3cccs3)csc21)c1ccc(-c2ccccc2)cc1	nt	i	1.02	5.4	-42.1	99.3	108.9
Cc1ccc(S(=O)(=O)c2ccc(Oc3ccccc3)cc2)cc1	-1.4	i	0.89	-5.5	nt	nt	97.1
N#Cc1nc(COc2ccccc2)oc1N1CCCCC1	-2.3	i	1.11	-4.6	nt	nt	107.3
COc1ccc(C)cc1NC(=O)Nc1ccc(Br)cn1	-2.5	i	0.93	0.1	57.1	153.4	102.3
O=S(=O)(c1cccs1)N1CN(C2CCCCC2)c2nc3ccccc3nc21	nt	i	0.9	nt	nt	nt	100.0
CCN(CC)CCNC(=O)c1cn(C)c2ccc(S(=O)(=O)N(C)C3CCCCC3)cc2c1=O	-1.8	i	0.8	0.0	nt	nt	100.7
CCn1c(CNC(=O)c2ccco2)nnc1SCC(=O)c1ccc(OC)cc1	nt	i	0.98	-6.5	nt	nt	93.8
COc1ccc(CN(C(=O)Cn2nnc3ccccc32)C(C(=O)NC(C)(C)C)c2ccco2)cc1 (stereo unspecified)	-1.1	i	1.05	-5.7	nt	nt	101.4
CC(C)c1csc(CN2CCC(N3CCC(C(=O)N4CCOCC4)CC3)CC2)n1	nt	i	0.98	1.7	nt	nt	116.7
C=CCc1cccc2cc(C(=O)NC3=C(C#N)CCC3)c(=O)oc12	-1.6	i	0.84	-10.5	43.5	83.0	79.2
CCC(C)(NC=O)C(=O)Nc1c(C)cccc1C (stereo unspecified)	nt	i	1.03	nt	nt	nt	87.0

An excerpt of these results, as labelled records.
COc1ccc(C)cc1NC(=O)Nc1ccc(Br)cn1
  GALR2 ag = -2.5	HSV augment = i	HSV augment primary fold = 0.93	PKD1 inh = 0.1	Insulin prom inh = 57.1	Insulin prom inh cell count = 153.4	RGS16-Gao = 102.3
CCN(CC)CCNC(=O)c1cn(C)c2ccc(S(=O)(=O)N(C)C3CCCCC3)cc2c1=O
  GALR2 ag = -1.8	HSV augment = i	HSV augment primary fold = 0.8	PKD1 inh = 0.0	Insulin prom inh = nt	Insulin prom inh cell count = nt	RGS16-Gao = 100.7

(further entries)
SMILES	GALR2 ag	HSV augment	HSV augment primary fold	PKD1 inh	Insulin prom inh	Insulin prom inh cell count	RGS16-Gao
O=C1N/C(=N\N=C\c2ccco2)SC1Cc1ccccc1[N+](=O)[O-] (stereo unspecified)	nt	i	1.03	nt	nt	nt	97.7
CCCCNC(=O)c1cccnc1SCC(=O)Nc1ccccc1OC	-0.7	i	1.03	4.2	nt	nt	100.6
N#C/C(=C\c1cccc(OC(=O)c2cccs2)c1)C(N)=O	0.0	nt	nt	6.1	25.0	94.0	103.3
O=C(CCN1C(=O)C2CCCCC2C1=O)Nc1ccc(F)c(F)c1F (stereo unspecified)	nt	i	1.08	3.1	nt	nt	100.6
O=c1c2ccccc2c(C=NCCCN2CCOCC2)c(O)n1Cc1ccccc1	-2.2	i	0.79	5.7	3.2	145.8	100.9
Cc1ccc(C2C(C#N)C(C#N)N3CCCN23)cc1 (stereo unspecified)	-1.0	i	1.04	-14.6	17.1	54.7	98.0
CC(C)Cn1cnc2c1c(=O)n(CC(O)c1ccccc1)c(=O)n2CC(C)C (stereo unspecified)	-0.6	i	0.84	0.9	-6.2	64.8	105.4
COc1ccccc1NC(=O)Cn1nnc(-c2ccccc2NC(=O)c2cnccn2)n1	nt	i	0.96	-6.6	-63.6	25.1	137.8
Cc1ccc(S(=O)(=O)N/N=C\c2ccc(C)o2)cc1	-2.7	i	1.09	-19.2	-25.0	112.1	95.7
O=C(O)c1nccnc1C(=O)Nc1ccc(Oc2c(Cl)cccc2Cl)nc1	nt	i	0.89	nt	nt	nt	121.5
CC(C)(C)NCc1ccc(OCc2cccs2)cc1	nt	i	0.88	6.1	-27.8	99.4	99.7
Cc1cc(C)n(CCN(C)c2nc3nonc3nc2N2CCCCC2)n1	nt	i	1.01	8.6	nt	nt	94.8
COc1cccc(C(=O)NCCSc2ccc(C)cc2)c1	-1.4	i	0.98	7.3	43.3	107.0	98.0
COc1cccc(/C(O)=C/c2nc3ccc(C(=O)NCCc4cccc(C)c4)cc3[nH]c2=O)c1	-0.9	i	1.06	5.5	nt	nt	112.5
CCCN1C(=O)C(NS(=O)(=O)c2ccc(N)cc2)(C(F)(F)F)C(C(=O)OC)=C1C (stereo unspecified)	2.5	i	0.94	5.0	-63.2	39.1	100.3
CSC1=C(C#N)C(c2ccc3c(c2)OCO3)C2=C(CCCC2=O)N1 (stereo unspecified)	-2.3	i	0.97	-12.8	-6.7	164.3	76.2
O=c1c2ccccc2nc(COc2ccccc2)n1/N=C/c1ccc(O)cc1O	nt	i	0.67	nt	nt	nt	98.1
COc1ccc(/C=N/NC(=S)Nc2cc(C(F)(F)F)ccc2Cl)cc1	nt	i	0.97	nt	nt	nt	101.8
COC(=O)c1ccccc1-c1ccc(/C=N/Nc2nc(N3CCCC3)nc(N3CCCC3)n2)o1	nt	i	0.77	nt	nt	nt	95.9
Cc1cccc(OCCn2c(=O)oc3ccc(C)cc32)c1	nt	i	1.02	7.3	-6.7	99.8	89.5
Cc1sc(NC(=O)CSc2nc(N)cc(N)n2)c(C#N)c1C	nt	i	0.93	nt	nt	nt	101.1
CN1CCc2c(sc(/N=C/c3ccco3)c2C(N)=O)C1	0.5	i	0.83	3.0	nt	nt	97.4
O=C1NC(c2cccc(Cl)c2)Nc2ccccc21 (stereo unspecified)	nt	i	0.99	-2.4	nt	nt	110.2
CC(=O)c1ccc(-c2nc3c4ccccc4ccn3c2C(C)=O)o1	0.4	nt	nt	2.4	nt	nt	101.8
CCOc1ccc(C(C)NC(=O)CCC(=O)O)cc1 (stereo unspecified)	-1.4	i	0.93	-0.4	-7.7	48.5	102.0
Cc1nn(Cc2cccc3ccccc23)c(C)c1NC(=O)c1cccnc1	nt	i	0.94	1.3	nt	nt	103.9
Cn1c(Cc2cccs2)nnc1SCC(=O)N1CCc2ccccc21	-1.4	i	1.02	-5.7	-364.9	42.3	101.3
COc1cccc2cc(C(=O)N3CCN(c4ccccc4F)CC3)c(=O)oc12	-0.6	i	0.78	3.2	19.4	110.6	108.1
C[n+]1nc(Nc2cccc(F)c2)sc1-c1ccc(C(=O)O)cc1	nt	i	1.11	nt	nt	nt	99.4
CCCOc1ccc(C(=O)NCC(c2cccs2)N(C)C)cc1 (stereo unspecified)	-1.3	i	1	-7.0	-35.7	120.1	129.9
O=[N+]([O-])c1ccc(Cl)c(/C=N/N2CCN(Cc3ccc(Cl)cc3)CC2)c1	-2.2	i	0.86	-0.9	-50.0	47.4	102.2
Cc1cc(NS(=O)(=O)c2ccc(C3CCCCC3)cc2)no1	0.1	i	0.68	-8.6	12.0	90.5	101.2
O=C(C[n+]1ccsc1)c1ccccc1	-0.4	i	1.08	-11.1	16.7	102.0	101.1
CC(C(=O)NCCS(=O)(=O)c1ccc(Cl)cc1)S(=O)(=O)c1ccc(Cl)cc1 (stereo unspecified)	nt	i	1.03	-10.8	-119.5	181.5	98.1
O=C(c1cccc(S(=O)(=O)N2CCOCC2)c1)N1CCOCC1	-1.6	i	1.08	-2.3	nt	nt	103.2
CC(C)(C)c1ccc(-c2nnc(SCCC#N)n2C2CCCC2)cc1	0.2	i	0.91	-4.3	-91.7	64.3	115.3
COC(=O)c1cc2c(C)cc3ccc(C)cn3c-2c1C(=O)OC	1.4	?	nt	7.7	-65.7	89.5	102.2
C#CCN1C(=O)S/C(=C/C=C/c2ccc(N(C)C)cc2)C1=O	-0.9	?	nt	-16.3	-270.4	96.2	107.0
COc1ccc(-c2nc(CN3CCCCC3CCc3ccccn3)c(C)o2)cc1 (stereo unspecified)	nt	i	1.02	-4.5	-4.3	62.1	55.0
CC(C)(C)n1nc2c(c1NC(=O)c1cc3ccccc3o1)CSC2	nt	i	0.9	-8.1	14.3	67.8	99.2
CC1=CC(C)=Nc2ccccc2N1	-0.7	i	0.97	-1.9	18.8	138.8	87.1
COc1cc(-c2nc3ccc4ccccc4c3c3c2CCC3)ccc1O	-0.1	i	0.84	-6.5	-44.4	125.9	110.0

Compounds were not picked by outcome. About 1.2% of those tested had a hit in this group.
